Menin-MLL FL inh = displaces fluorescein MLL peptide from human menin. Fluorescence polarization, fluorescein-MLL peptide displacement from menin. FP activity change, % at 61.4 µM. 290,000 tested, under 10 active; inconclusive = falling polarisation curve, or a change in total fluorescence; inactive = total fluorescence flat and polarisation flat or rising; no compound was filed as active; the % refers to the polarisation; negative = inhibition;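 further: % of control where 0% means no effect; inhibitors lower the polarisation; unlabelled MLL peptide was the positive control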
ClpP mod = qHTS Assay for Activators of ClpP. ATP-dependent Clp protease proteolytic subunit (Bacillus subtilis (strain 168)), P80244. purified B. subtilis ClpP, FRET peptide cleavage, 20 min. Potency, µM (titrated, usually from 57.5 µM), inactives show at the highest dose activity change, negative = active. 1.9% of 340,000 active. AID 651965, 2013; active = well fitted falling curve with a large enough effect; inconclusive = small, poorly fitted or top-dose-only effect; inactive = no such curve, though single readings can be large or run the other way; further: potency means the concentration at half of the fitted maximal effect; the source files actives as falling curves though it sought activators and does not explain the sign; nearly all actives have a fitted effect of over 65% in size; many hits overshoot -100%
Target sequence (P80244 whole entry, looked up): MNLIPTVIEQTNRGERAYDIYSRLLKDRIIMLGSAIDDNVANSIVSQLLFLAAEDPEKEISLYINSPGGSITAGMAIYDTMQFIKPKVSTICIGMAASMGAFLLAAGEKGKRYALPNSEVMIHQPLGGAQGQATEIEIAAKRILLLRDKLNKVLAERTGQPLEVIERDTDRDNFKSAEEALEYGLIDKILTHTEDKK
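ClpP 10 microg/mL final, pH 8 Tris/KCl buffer with BSA, glycerol, Tween-20; compound pinned in; FRET-FV substrate; RT 20 min; Ex320/Em430; ΔFRET vs ADEP 5.8 microM, DMSO, no enzyme.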
gsp ag = gsp mutant agonism; 0.13% of 340,000 active; AID 624287; Potency, µM (series often up to 76.9 µM), for the others: at the top dose activation (cAMP increase), usual class: activators; gsp mutant cells, cAMP HTRF, 30 min; control for the full effect not named in the record; active = well fitted activation curve with a large enough effect; inconclusive = small, poorly fitted or top-dose-only effect, or another doubt; inactive = no such curve, though single readings can be large or run the other way; cell line not stated here;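 further: phosphodiesterase inhibitor Ro 20-1724 added with compounds to block cAMP breakdown; potency means the concentration at half of the fitted maximal effect; nearly all actives have a fitted effect of over 60% in size; about a fifth of the inactives were tested at one dose only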
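Cells in DMEM/10% FBS with G418 were pretreated with compounds in DMSO plus […] (300 uM stock) for 30 min at 37C. cAMP was measured by HTRF (cAMP-d2 plus anti-cAMP antibody-K) after 30 min at room temperature.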
TRPML1 ag = activates the human TRPML1 channel; activation, % (no concentration beside the values); 0.12% of 410,000 active; TRPML1-expressing cells, Ca2+ dye fluorescence, FDSS; host cell line not named in the record; reference of the full effect not given here; Q9GZU1; in the data active = activation above about 50%; inconclusive = about 30% to 50%; inactive = below about 30%; further: 0% is about no effect; the text of the record puts the active cut at 80%
Target sequence (Q9GZU1 whole entry, looked up): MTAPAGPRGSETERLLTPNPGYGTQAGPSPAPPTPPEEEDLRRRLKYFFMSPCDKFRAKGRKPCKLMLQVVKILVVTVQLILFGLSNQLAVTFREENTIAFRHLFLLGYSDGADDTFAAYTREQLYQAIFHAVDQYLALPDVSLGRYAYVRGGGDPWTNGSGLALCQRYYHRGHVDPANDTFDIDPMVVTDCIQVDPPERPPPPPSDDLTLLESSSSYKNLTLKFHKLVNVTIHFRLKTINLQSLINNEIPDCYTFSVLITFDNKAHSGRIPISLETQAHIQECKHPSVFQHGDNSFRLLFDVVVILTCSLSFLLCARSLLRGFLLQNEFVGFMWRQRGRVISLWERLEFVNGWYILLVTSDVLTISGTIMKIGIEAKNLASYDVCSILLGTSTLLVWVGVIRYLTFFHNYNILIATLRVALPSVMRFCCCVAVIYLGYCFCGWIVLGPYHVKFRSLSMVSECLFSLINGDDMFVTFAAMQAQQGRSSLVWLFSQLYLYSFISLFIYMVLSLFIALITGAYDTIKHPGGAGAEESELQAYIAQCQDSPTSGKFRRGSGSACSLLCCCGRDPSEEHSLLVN
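Tet-induced TRPML1-DL cells, 1,500 per well, cultured overnight, were loaded with a no-wash Ca2+ dye for 45–90 min. Calcium fluorescence was recorded on the FDSS for 110 s after compound addition, before the EC80 agonist (4 uM 54-4) was added.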
gsp antag = gsp mutant antagonism; gsp-mutant cells, cAMP HTRF, 30 min; control for the full effect not named in the record; Potency, µM (series often up to 76.9 µM), for the others: at the top dose activity change, negative = inhibition, hits mostly inhibitors; 0.4% of 340,000 active; AID 624288; active = falling curve of any shape with a large fitted effect; inconclusive = falling curve, mostly with a smaller effect; inactive = flat or rising curve; cell line not stated here;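 further: intracellular cAMP measured with PDE inhibitor Ro 20-1724 present during compound exposure; potency means the concentration at half of the fitted maximal effect; on the % scale 0 is the no-effect control and ±100 the full control effect; nearly all actives have a fitted effect of over 65% in size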
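G418-selected cells were plated in DMEM/10% FBS for 16-24 h at 37C, then treated with compounds plus the PDE inhibitor […] (300 uM solution added) for 30 min at 37C. Intracellular cAMP was measured by HTRF after 30 min lysis at room temperature.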
TRPML1 blocker = blocks the human TRPML1 channel; Q9GZU1; TRPML1-inducible cells, Ca2+ dye fluorescence, FDSS; hits give low values; inhibition of EC80 agonist-evoked calcium signal; activity change, negative = inhibition, % (no concentration beside the values); 0.02% of 390,000 active; in the data active means activity change below about -50%; inconclusive means about -30% to -50%; inactive means above about -30%;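 further: stimulus is agonist 54-4 at its EC80 concentration; on the % scale 0 is the no-effect control and ±100 the full control effect; compound concentration not given in the record; the text of the record puts the active cut at -80%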
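Tet-induced TRPML1-DL cells loaded with Ca8 no-wash calcium dye were read kinetically on FDSS. Compound addition was followed by EC80 agonist 54-4 (4 uM final); inhibition was read over 110 s.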
* hit, by the source's call; [ ] = remark or other dose.

What do the screens show for `COc1cccc(NC(=S)N/N=C2/CCCCc3ccccc32)c1`?
Menin-MLL FL inh: 1.9; ClpP mod: -0.7%; gsp ag: inconclusive; TRPML1 ag: 1.3; gsp antag: -22.6%; TRPML1 blocker: -3.9

How did CCOc1cc(/C=N/NC(=O)c2ccccn2)ccc1OC(=O)c1ccc(F)cc1 do in these assays?
ClpP mod: 0.8%; gsp ag: -55.0%[inhibitor]; TRPML1 ag: 1.4; gsp antag: -7.8%; TRPML1 blocker: 11.9

How did CC(=O)c1cccc(NC(=O)CSc2nc(=O)n(CCN3CCOCC3)c3c2CCC3)c1 do in these assays?
ClpP mod: -0.6%; gsp ag: -0.4%; TRPML1 ag: 0.0; gsp antag: -11.6%; TRPML1 blocker: 23.7

How did CC(=O)Nc1ccc2nc(NC(=O)CCc3ccccc3)sc2c1 do in these assays?
Menin-MLL FL inh: -1.2; ClpP mod: -4.3%; gsp ag: 6.4%; TRPML1 ag: 1.9; gsp antag: -16.4%; TRPML1 blocker: -4.0

What do the screens show for `O=C(NCCCN1CCN(CCCNC(=O)c2cccc([N+](=O)[O-])c2)CC1)c1cccc([N+](=O)[O-])c1`?
ClpP mod: 0.9%; gsp ag: 7.1%; TRPML1 ag: 0.4; gsp antag: 7.7%; TRPML1 blocker: 11.6

What do the screens show for `CCn1cc(C(=O)O)c(=O)c2cc(F)c(N3CCN(C(=S)NC(=O)c4cc(OC)cc(OC)c4)CC3)cc21`?
Menin-MLL FL inh: 8.1; ClpP mod: 4.5%; gsp ag: -16.3%; TRPML1 ag: -1.2; gsp antag: -2.7%; TRPML1 blocker: -23.3

Results for COc1ccc(C(=O)NCCOc2ccccc2Cl)c(OC)c1OC ?
Menin-MLL FL inh: -27.2; ClpP mod: 0.2%; gsp ag: 2.2%; TRPML1 ag: 0.8; gsp antag: 6.0%; TRPML1 blocker: -7.0

How did Cc1cccc(CNC(=O)CN2CC(C)Sc3ccccc32)c1 (centres undefined) do in these assays?
ClpP mod: 0.1%; TRPML1 ag: 5.8; TRPML1 blocker: 19.1

Results for Cc1nn(-c2c(Cl)cc(Cl)cc2Cl)c(=O)c2ccccc12 ?
Menin-MLL FL inh: 1.6; ClpP mod: -2.2%; gsp ag: -21.5%; TRPML1 ag: 1.0; gsp antag: -2.2%; TRPML1 blocker: -1.7

What do the screens show for `CCOc1ccc(-c2ccc(SCC(=O)NCC3CCCO3)nn2)cc1` (centres undefined)?
Menin-MLL FL inh: 0.4; gsp ag: -7.2%[15.4 µM]; TRPML1 ag: 2.1; gsp antag: -11.4%; TRPML1 blocker: -8.2

Results for CCOc1ccccc1N1CCN(C(=O)c2ccccc2SCC(=O)N2CCCC2)CC1 ?
ClpP mod: inconclusive; gsp ag: -1.0%; TRPML1 ag: 1.2; gsp antag: -14.1%; TRPML1 blocker: 1.7

What do the screens show for `COc1ccc(N2CCN(Cc3nc4c(c(=O)[nH]c(=O)n4C)n3CC(C)C)CC2)cc1`?
ClpP mod: -1.3%; TRPML1 ag: -0.3; TRPML1 blocker: -2.7

Results for O=[N+]([O-])c1ccc(Cc2nnc(-c3ccccc3Cl)o2)cc1 ?
Menin-MLL FL inh: 2.2; gsp ag: -18.2%; TRPML1 ag: -0.3; gsp antag: 2.0%; TRPML1 blocker: -19.0

How did CCOC(=O)c1nn(-c2ccc(F)cc2)c2c1CC/C2=C/c1ccccc1 do in these assays?
Menin-MLL FL inh: -1.5; ClpP mod: 3.9%; gsp ag: -13.5%; TRPML1 ag: 4.1; gsp antag: 9.1%; TRPML1 blocker: 0.5

How did CSc1ncccc1C(=O)Nc1nc(C(C)(C)C)cs1 do in these assays?
Menin-MLL FL inh: -0.7; gsp ag: 12.7%[15.4 µM]; TRPML1 ag: -0.3; gsp antag: inconclusive; TRPML1 blocker: -1.3

What do the screens show for `O=C(O)CN(c1ccc(F)cc1)S(=O)(=O)c1ccc2c(c1)OCCO2`?
Menin-MLL FL inh: -1.4; ClpP mod: -0.2%; gsp ag: -23.2%; TRPML1 ag: 1.6; gsp antag: -0.5%; TRPML1 blocker: -12.4

What do the screens show for `Cc1ccc(NC(=O)C(c2ccccc2)C2CCCC2)cc1` (centres undefined)?
Menin-MLL FL inh: 1.9; ClpP mod: -0.9%; gsp ag: -25.8%; TRPML1 ag: 0.9; gsp antag: -20.2%; TRPML1 blocker: -7.3

What do the screens show for `Cc1cc(O)c(C(C)C)cc1NC(=O)Nc1cc(Cl)ccc1Cl`?
gsp ag: inconclusive; TRPML1 ag: 1.2; gsp antag: -17.0%; TRPML1 blocker: -13.7

What do the screens show for `Cc1ccc2c(n1)sc1c(-c3ccc(Br)cc3)c(C#N)c(N)nc12`?
Menin-MLL FL inh: 3.8; ClpP mod: -21.5%; gsp ag: -2.4%; TRPML1 ag: -0.1; gsp antag: 8.2%; TRPML1 blocker: -4.3

What do the screens show for `CCOC(=O)CCc1c(C)c2c(C)nn(-c3ccccc3)c2[nH]c1=O`?
Menin-MLL FL inh: 5.7; ClpP mod: -16.7%; gsp ag: -2.4%; TRPML1 ag: -0.2; gsp antag: 8.6%; TRPML1 blocker: 16.4

Results for O=C(NCCc1csc(-c2ccc(F)cc2)n1)c1c(F)cccc1Cl ?
ClpP mod: -6.2%; TRPML1 ag: 0.9; TRPML1 blocker: -0.7

Results for CC(=O)OCC1=C(C(=O)O)N2C(=O)C(NC(=O)C(C)Cn3cc(Cl)cn3)C2SC1 (centres undefined) ?
Menin-MLL FL inh: 1.4; ClpP mod: -2.4%; gsp ag: 13.0%; TRPML1 ag: 0.1; gsp antag: 7.8%; TRPML1 blocker: 3.8

How did CCN(CC)CCCNC(=O)c1ccc2c(=O)n(Cc3ccc4c(c3)OCO4)c(=S)[nH]c2c1 do in these assays?
Menin-MLL FL inh: -1.5; ClpP mod: 0.2%; gsp ag: -1.0%[15.4 µM]; TRPML1 ag: 0.2; gsp antag: 9.1%; TRPML1 blocker: -10.7

Results for Nc1nc(SCc2ccccc2)sc1C(=O)N1CCCCC1 ?
ClpP mod: -1.8%; gsp ag: 15.4%; TRPML1 ag: -0.4; TRPML1 blocker: 15.1

What do the screens show for `CSCCC(NC(=O)c1ccccc1)C(=O)NNC(=O)c1csc(N2CCOCC2)n1` (centres undefined)?
ClpP mod: -6.5%; gsp ag: -0.6%; TRPML1 ag: 0.5; gsp antag: 15.7%; TRPML1 blocker: -5.1

What do the screens show for `COc1cccc(-c2cc(C(=O)Nc3cc(OC)c(OC)c(OC)c3)on2)c1`?
ClpP mod: -0.1%; TRPML1 ag: -0.9; TRPML1 blocker: 2.9

What do the screens show for `O=C(Nc1ccccc1N1CCOCC1)c1cc(Br)c(Br)s1`?
Menin-MLL FL inh: 1.6; ClpP mod: -17.7%; gsp ag: 9.6%[15.4 µM]; TRPML1 ag: -0.2; gsp antag: -11.8%; TRPML1 blocker: -2.9

Results for COc1ccc(NC(=O)c2cn(C)c(=O)c3cc(OC)c(OC)cc23)cc1OC ?
Menin-MLL FL inh: 3.5; gsp ag: -14.6%[15.4 µM]; TRPML1 ag: -0.5; gsp antag: 6.3%; TRPML1 blocker: 18.4

Results for CCc1ccc(NC(=O)COC(=O)c2ccc(Cl)c(S(=O)(=O)N3CCCCCC3)c2)cc1 ?
Menin-MLL FL inh: 6.5; ClpP mod: inconclusive; gsp ag: 16.3%; TRPML1 ag: 0.1; gsp antag: -2.8%; TRPML1 blocker: -0.4

What do the screens show for `COCCn1nnnc1C(c1cc(OC)ccc1OC)N1CCc2ccccc2C1` (centres undefined)?
Menin-MLL FL inh: inconclusive; ClpP mod: -1.4%; gsp ag: 3.7%; TRPML1 ag: -0.8; gsp antag: 2.9%; TRPML1 blocker: 68.2

What do the screens show for `O=C(C1CCCN1S(=O)(=O)c1cccc2cccnc12)N1CCc2ccccc2C1` (centres undefined)?
Menin-MLL FL inh: 2.1; ClpP mod: 1.2%; gsp ag: -38.6%[inhibitor]; TRPML1 ag: -0.7; gsp antag: -10.7%; TRPML1 blocker: 2.6

Results for Cc1ccc(-n2nc3c(=O)n(C(C)C(=O)NCc4ccccc4Cl)nc(C)c3c2C)cc1 (centres undefined) ?
Menin-MLL FL inh: -0.7; ClpP mod: 1.8%; gsp ag: inconclusive; TRPML1 ag: -0.4; gsp antag: inconclusive; TRPML1 blocker: 30.2

Results for Cc1ccc(NC(=S)Nc2ccccn2)c(C)c1 ?
Menin-MLL FL inh: -0.2; ClpP mod: -3.1%; gsp ag: -2.3%[15.4 µM]; TRPML1 ag: 1.6; gsp antag: 6.2%; TRPML1 blocker: 2.8

Results for Cc1nn(-c2ccccc2)c(Cl)c1/C=N/Nc1nc2ccccc2n1C ?
Menin-MLL FL inh: 4.8; ClpP mod: 0.0%; gsp ag: -27.6%; TRPML1 ag: -0.4; gsp antag: -28.9%; TRPML1 blocker: 2.8

Results for CNC(=O)c1ccc2nc(Cc3ccccc3)oc2c1 ?
ClpP mod: -2.5%; TRPML1 ag: -0.7; TRPML1 blocker: -12.7

What do the screens show for `O=S(=O)(/N=C(/Nc1ccccn1)c1ccccc1)c1ccc(Cl)cc1`?
Menin-MLL FL inh: -0.7; ClpP mod: 0.1%; gsp ag: -4.0%; TRPML1 ag: 1.4; gsp antag: -14.8%; TRPML1 blocker: 8.7

Results for COc1cccc(NC(=O)Cn2cc3c(n2)CCCCC3)c1 ?
Menin-MLL FL inh: -0.4; ClpP mod: -1.7%; gsp ag: -89.8%[inhibitor]; TRPML1 ag: 0.6; gsp antag: 7.2%; TRPML1 blocker: 9.5

What do the screens show for `CC(=O)c1ccc(NC(=O)N2CCN(c3cccc(Cl)c3)CC2)cc1`?
Menin-MLL FL inh: -1.5; ClpP mod: -2.9%; gsp ag: inconclusive; TRPML1 ag: 0.3; gsp antag: -16.8%; TRPML1 blocker: 3.1

What do the screens show for `COc1ccc(CNC(=O)NC(C)(C)c2cccc(C(C)(C)NC(=O)NCc3ccc(OC)cc3)c2)cc1`?
Menin-MLL FL inh: 4.5; ClpP mod: 1.5%; gsp ag: -6.9%; TRPML1 ag: 0.2; gsp antag: -8.0%; TRPML1 blocker: -4.4

What do the screens show for `CCCCNS(=O)(=O)c1ccc2c(c1)oc(=O)n2CC(=O)OCC`?
Menin-MLL FL inh: 4.3; ClpP mod: -0.4%; gsp ag: -101.3%[inhibitor]; TRPML1 ag: 0.3; gsp antag: 7.8%; TRPML1 blocker: 1.1

What do the screens show for `c1ccc(-n2c(SCc3nc(-c4cccs4)no3)nnc2-c2ccco2)cc1`?
Menin-MLL FL inh: 12.1; ClpP mod: -0.1%; gsp ag: -19.2%; TRPML1 ag: 2.2; gsp antag: -15.1%; TRPML1 blocker: -4.7

Results for C[C@@H]1CN=C2N(CCNC(=O)CCC3CCCCC3)[C@H](Cc3ccc(O)cc3)CN21 ?
Menin-MLL FL inh: -4.8; ClpP mod: 0.6%; TRPML1 ag: -0.7; gsp antag: 1.6%; TRPML1 blocker: 0.3

Compound activity: PubChem BioAssay, National Center for Advancing Translational Sciences (NCATS)
